Screens from PubChem BioAssay.
PINK1 expr mod: changes PINK1 expression | PINK1 immunofluorescence, high-content cytometry, 24 h | Potency, µM (top dose mostly 76.6 µM), for inactives: top-dose activation (PINK1 increase), most hits filed as activators | 0.2% of 410,000 active | AID 624263; active = well fitted activation curve with a large enough effect; inconclusive = small, poorly fitted or top-dose-only effect; inactive = flat fitted curve, though single readings scatter; cell line not stated here;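 also: potency is read from the fitted curve at half-maximal effect; % of control where 0% means no effect; nearly all actives have a fitted effect of over 65% in size; a mitochondrial uncoupler was the plate control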
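Fluorescence from anti-PINK1 antibody, together with nuclear and cell stains, was scanned on a laser-scanning cytometer. Before staining, stable-line cells were incubated 24 hours with compounds at 5 concentrations; primary antibody 12 h at 10 degrees C.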
TRPML1 ag: activates the human TRPML1 channel. Q9GZU1. TRPML1-expressing cells, Ca2+ dye fluorescence, FDSS; host cell line not named in the record; reference of the full effect not given here. activation, % (no concentration beside the values). 0.12% of 410,000 active; in the data active = activation above about 50%; inconclusive = about 30% to 50%; inactive = below about 30%; also: 0% is about no effect; the text of the record puts the active cut at 80%
Target sequence (Q9GZU1 whole entry, looked up): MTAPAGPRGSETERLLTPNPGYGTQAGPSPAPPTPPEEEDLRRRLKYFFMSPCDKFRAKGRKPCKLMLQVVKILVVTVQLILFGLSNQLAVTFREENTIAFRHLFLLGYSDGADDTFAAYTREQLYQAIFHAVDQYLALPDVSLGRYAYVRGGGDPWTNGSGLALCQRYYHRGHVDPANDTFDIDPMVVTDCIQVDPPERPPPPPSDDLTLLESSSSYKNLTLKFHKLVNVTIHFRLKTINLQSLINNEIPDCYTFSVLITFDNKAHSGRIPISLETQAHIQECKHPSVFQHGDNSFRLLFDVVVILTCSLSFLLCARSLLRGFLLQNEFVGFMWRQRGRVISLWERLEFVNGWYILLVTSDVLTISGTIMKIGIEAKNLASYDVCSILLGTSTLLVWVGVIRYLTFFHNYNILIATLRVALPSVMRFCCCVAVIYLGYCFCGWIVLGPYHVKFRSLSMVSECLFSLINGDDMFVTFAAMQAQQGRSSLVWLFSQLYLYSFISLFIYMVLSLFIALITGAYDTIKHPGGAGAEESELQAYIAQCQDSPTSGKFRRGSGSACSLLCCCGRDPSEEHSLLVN
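Calcium fluorescence on an FDSS kinetic reader gave the read-out. Tet-induced TRPML1-DL cells were plated overnight, dye-loaded (Ca8 with quencher, 45-90 min, room temperature, dark), then read 110 s after compound addition, and again 110 s after 4uM final 54-4 (EC80).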
* hit, by the source's call; ? = inconclusive.

SMILES	PINK1 expr mod	TRPML1 ag
COc1ccc(OC)c(CNS(=O)(=O)c2ccc3[nH]c4c(c3c2)CCCCC4)c1	?	3.1
Cc1cc(NC(=O)c2cnc3c(-c4ccccc4)c(C)nn3c2C)ccc1Br	1.1%	0.5
Cc1ccc(OCC(=O)N(Cc2ccco2)c2ccccn2)cc1	-0.4%	-0.3
CCOc1ccc(-c2cc3c(=O)n(Cc4nc(-c5ccc(OC(C)C)cc5)oc4C)ccn3n2)cc1Cl	1.3%	-0.3
Cc1cc(C)cc(S(=O)(=O)N2CCN(c3nc(-c4cccs4)nc4ccccc34)CC2)c1	0.6%	-0.3
Nc1ncc(S(=O)(=O)NCc2ccc(Cl)cc2)cn1	0.7%	-0.4
COc1cccc(CNC(=O)CN2C(=O)COc3ccc(S(=O)(=O)Nc4ccccc4)cc32)c1	0.5%	-0.5
COc1ccc(CCNC(=O)c2ccc(Cn3c(=O)c4ccccc4n(Cc4cccc(C)c4)c3=O)cc2)cc1OC	-0.3%	-0.2
COc1ccccc1N1CCN(c2ccc(-c3nc(-c4ccccc4)no3)cc2[N+](=O)[O-])CC1	-1.0%	-1.2
O=C(COC(=O)CNC(=O)C1CCCCC1)NC1CCCC1	2.2%	-0.5
CCc1ccccc1NC(=O)CCS(=O)(=O)c1cccc2nonc12	5.0%	0.0
O=C(CN1C(=O)c2cccc3cccc1c23)Nc1cccc(F)c1	3.7%	-0.1
COc1ccc(OCC(=O)Nc2nc(-c3ccc(Br)cc3)ns2)cc1	0.4%	2.8
COc1cc(F)c(S(=O)(=O)Nc2c(C)n(C)n(-c3ccccc3)c2=O)cc1OC	0.1%	-0.2
CC1CCN(C(=O)c2cc3c(=O)n(C)c4cc(Cl)ccc4c3s2)CC1	-4.5%	0.9
CCN(C(=O)C1CCN(S(=O)(=O)c2c(C)noc2/C=C/c2ccc(C)cc2)CC1)c1cccc(C)c1	0.3%	0.1
O=C(Nc1ccccc1C(F)(F)F)N1CCOc2ccc(Cl)cc21	-0.1%	1.0
CCCNC(=O)CCNS(=O)(=O)c1ccc2c(c1)c(=O)n(C)c(=O)n2C	2.0%	-1.0
Cc1cccc(NC(=O)c2cccc(N3CCCS3(=O)=O)c2)c1	5.6%	0.9
COc1cc(NC(=O)Cn2cnc3sc(C)c(S(=O)(=O)N4CCN(C)CC4)c3c2=O)cc(OC)c1OC	-0.5%	-0.2

Sorted by molecular weight (largest number first): some entries from above.
SMILES	PINK1 expr mod	TRPML1 ag
CCN(C(=O)C1CCN(S(=O)(=O)c2c(C)noc2/C=C/c2ccc(C)cc2)CC1)c1cccc(C)c1	0.3%	0.1
COc1ccccc1N1CCN(c2ccc(-c3nc(-c4ccccc4)no3)cc2[N+](=O)[O-])CC1	-1.0%	-1.2
COc1cc(F)c(S(=O)(=O)Nc2c(C)n(C)n(-c3ccccc3)c2=O)cc1OC	0.1%	-0.2
Cc1cccc(NC(=O)c2cccc(N3CCCS3(=O)=O)c2)c1	5.6%	0.9
Cc1ccc(OCC(=O)N(Cc2ccco2)c2ccccn2)cc1	-0.4%	-0.3
Nc1ncc(S(=O)(=O)NCc2ccc(Cl)cc2)cn1	0.7%	-0.4

The listing picks up, repeating the 5 entries before the break.
SMILES	PINK1 expr mod	TRPML1 ag
CCN(C(=O)C1CCN(S(=O)(=O)c2c(C)noc2/C=C/c2ccc(C)cc2)CC1)c1cccc(C)c1	0.3%	0.1
O=C(Nc1ccccc1C(F)(F)F)N1CCOc2ccc(Cl)cc21	-0.1%	1.0
CCCNC(=O)CCNS(=O)(=O)c1ccc2c(c1)c(=O)n(C)c(=O)n2C	2.0%	-1.0
Cc1cccc(NC(=O)c2cccc(N3CCCS3(=O)=O)c2)c1	5.6%	0.9
COc1cc(NC(=O)Cn2cnc3sc(C)c(S(=O)(=O)N4CCN(C)CC4)c3c2=O)cc(OC)c1OC	-0.5%	-0.2
CSc1nc2sc3c(c2c(=O)n1-c1ccccc1C)CCCC3	1.2%	2.2
Cc1ccc(-c2nnc3c4ccccc4c(-c4ccccc4)nn23)cc1	-0.9%	0.4
O=C(Cn1ncn2c(cc3cc(F)ccc32)c1=O)NC1CCCCC1	2.8%	0.1
CCOc1ccccc1NC(=O)c1ccc(C(=O)Nc2ccccc2OCC)cc1	2.1%	-0.7
CCC(CC)C(=O)Nc1ccc(OCc2cc(=O)n3ccsc3n2)cc1	2.1%	-0.7
CCN(CC)C(=O)c1sc2c(c1C)c(=O)n(CCc1ccccc1)c(=O)n2Cc1cc(C)ccc1C	-0.8%	1.3
Cc1ccc(C)c(NC(=O)CN(C)S(=O)(=O)c2cccc3nsnc23)c1	0.0%	1.4
COc1ccc(Cl)cc1N(C)C(=O)c1ccc2c(=O)n3c(nc2c1)CCCCC3	2.0%	0.2
O=C1CCc2cc(S(=O)(=O)NC(C(=O)Nc3ccc(F)cc3)c3ccccc3)ccc2N1 (stereo not drawn)	1.0%	-0.3
CCOc1cccc(CC(=O)N2CCc3c([nH]c4ccccc34)C2c2ccc(SC)cc2)c1OCC (stereo not drawn)	1.7%	-0.8
CCCC(=O)N1CCc2cc(OC)c(OC)cc2C1COc1ccc2c(C)cc(=O)oc2c1 (stereo not drawn)	0.6%	-0.8
CCCSCCCNC(=O)C1CCN(C(=O)c2cc3sccc3n2C)CC1	-0.5%	2.1
CCC(=O)N1CCc2cc(S(=O)(=O)NCCC(=O)Nc3cc(C)ccc3OC)ccc21	1.4%	1.1
CCCCOC(=O)c1ccc(NC(=O)c2cc3c(=O)n4cccc(C)c4nc3s2)cc1	4.3%	3.5
O=C(CSc1ncc2c(n1)-c1cc(Cl)ccc1N(Cc1ccccc1)S2(=O)=O)NCc1ccccc1	2.0%	0.6
CCOc1ccc(CCNC(=O)C2CCN(C(=O)N3CC(CC)Oc4ccc(C)cc43)CC2)cc1 (stereo not drawn)	-0.2%	2.0
CC(C)c1ccc(NC(=O)CCS(=O)(=O)c2ccc3c(c2)CC(=O)N3C)cc1	0.5%	0.1
Cc1ccc(CNc2ncnc3c2c(-c2ccccc2)cn3-c2ccccc2)cc1	2.8%	0.7
CCc1ccc(NC(=O)C(=O)NCCc2csc(-c3cccc(F)c3)n2)cc1	1.0%	0.5
COc1ccc(CC(=O)N2CCc3cc(OC)c(OC)cc3C2COc2ccc3c(C)cc(=O)oc3c2)cc1OC (stereo not drawn)	0.4%	-0.7
Oc1c(C(Nc2ccccn2)c2ccccc2)ccc2cccnc12 (stereo not drawn)	0.8%	0.0
Cc1cc(F)ccc1NC1(c2ccccc2)C(=O)c2ccccc2C1=O	2.7%	2.0
CCOc1ccc(CNC(=O)CN2N=C(c3ccccc3)CCC2=O)cc1OC	2.0%	1.3
CN1CCN(c2ccnc(N(C)CCCCCCN)n2)CC1	0.1%	-0.3
Cc1nc2ccc(S(=O)(=O)NC(C(=O)NCc3ccccc3Cl)C(C)C)cc2s1 (stereo not drawn)	0.7%	-0.9
CC(=O)Nc1ccc(NC(=O)CN2C(=O)CCc3cc(S(=O)(=O)N4CCCCC4)ccc32)cc1	0.4%	-0.7
CSc1ncc(Cl)c(C(=O)Nc2ccc(S(=O)(=O)N3CCCC(C)C3)cc2)n1 (stereo not drawn)	0.4%	0.8
Cc1ccc(C)c(NC(=O)CCc2nc(-c3ccc(C(C)(C)C)cc3)no2)c1	2.5%	1.8
O=C(Cn1c(=O)oc2cc(S(=O)(=O)NCc3ccccc3)ccc21)NCc1ccc(F)cc1	15%	-0.4
O=C(Nc1ccc(Cl)c(C(F)(F)F)c1)C(Cc1ccccc1)NS(=O)(=O)c1cccc2nsnc12 (stereo not drawn)	5.6%	0.9
CC(C)c1cnc2c(c1SCC(=O)Nc1cccc(F)c1)c(=O)n(C)c(=O)n2C	-0.3%	3.6
CCc1ccc(-c2nn(CC(=O)NC3CCCCC3)c3c2cnc2ccc(OC)cc23)cc1	0.2%	0.6
CC(C)(C)OC(=O)N1CCC(c2nnc(SCc3cccc(Cl)c3)o2)CC1	-1.6%	2.5
Cc1ccc(NC(=O)Cc2coc3ccc(C(C)C)cc23)c(C)c1	0.9%	1.6
N#Cc1nc(-c2ccc(OCc3ccc(Cl)cc3)cc2)oc1N1CCCCC1	1.3%	-0.3
COc1ccccc1CNC(=O)c1cc2c(=O)oc3ccc(C)cc3c2s1	1.1%	0.1
CCOc1ccc(NC(=O)CCS(=O)(=O)c2ccc(Br)s2)cc1	0.3%	1.5
CC(C)(C)OC(=O)N1CCC(c2c(C(=O)N3CCN(Cc4ccccc4)CC3)cnn2-c2ccc(Cl)cc2)CC1	-0.4%	?
Cc1nn(CC(=O)NCc2ccccc2Cl)c(=O)c2cccn12	0.1%	0.1
Nc1ccc(/C=C/c2ccc3cccnc3c2)cc1	2.6%	0.6
Cc1cc(C)c2c(n1)sc1c(=O)n(-c3ccccc3C(F)(F)F)nnc12	2.1%	1.1
Cc1cccc(CSc2nc3ccncc3n2CC(=O)N(C)C2CCCCC2)c1	1.4%	-0.7
CCc1cccc(NC(=O)CN(C)S(=O)(=O)c2ccc3[nH]c4c(c3c2)CCCC4)c1	4.5%	3.6
O=C(NCCCN1CCN(c2cccc(Cl)c2)CC1)Nc1ccccc1C(F)(F)F	0.6%	-0.5
Cc1cc(C)cc(NC(=O)c2ncn(-c3ccccc3)n2)c1	7.6%	3.8
Cn1c(=NC(=O)c2ccc(F)cc2)sc2cc(Br)ccc21	-0.2%	-0.2
O=C(NCc1ccccc1F)C(=O)NCC(c1ccc2c(c1)OCO2)N1CCOCC1 (stereo not drawn)	0.0%	-0.6
O=C(CCCn1ccc2cc(S(=O)(=O)N3CCCC3)ccc21)NCc1ccc(Cl)cc1	3.6%	-0.7
Cc1nn2c(=O)cc(COC(=O)c3ccc(NC(=O)C4CCCCC4)cc3)nc2s1	-0.1%	3.5
CC(=O)C1=C(c2cccc([N+](=O)[O-])c2)N(C(C)=O)n2c(nnc2-c2ccc(C)cc2)S1	0.3%	1.4
O=C(Nc1ccc(F)cc1)c1ccc2c(c1)NC(=O)c1ccccc1S2	?	0.9
CCOC(=O)c1noc2ncn(CC(=O)Nc3ccc(C)c(F)c3)c(=O)c12	3.1%	1.0
Cc1ccc(N(C)C(=O)c2noc3c2CCCCC3)cc1C	-13%	0.5
CCOC(=O)c1c(NC(=O)COc2ccccc2Br)sc2c1CCCCC2	2.4%	0.0
Cc1cccc(Cn2c(SCc3ccc(C(=O)N4CCCCCC4)cc3)nc3ccncc32)c1	1.8%	2.2
Cc1nc(SCC(=O)OC(C)(C)C)c2c3c(sc2n1)CCCC3	-0.8%	0.1
Clc1ccc(-c2noc(-c3cccnc3N3CCN(c4ccccc4)CC3)n2)cc1	-0.4%	-0.6
COc1ccc(CNC(=O)c2cnc(N(C)C)nc2)cc1	2.3%	1.3
CCc1ccc2oc(-c3cc(NC(=O)c4cccnc4)cc(C)c3O)nc2c1	-0.3%	0.8
CCn1cc(S(=O)(=O)c2ccc(C)cc2C)c(=O)c2cc(F)c(N3CCCCC3)cc21	2.2%	0.5
Further records:
SMILES	PINK1 expr mod	TRPML1 ag
Cc1ccccc1NC(=O)c1c(C)oc2ccc(O)c(CN3CCOCC3)c12	-0.4%	-0.7
CCc1nn2c(=O)c(S(=O)(=O)Nc3ccc(OC)c(Cl)c3)c(C)nc2s1	0.7%	0.7
Cc1cc(C)nc(NS(=O)(=O)c2ccc(NC(=O)COc3ccc(C(C)(C)C)cc3)cc2)n1	-0.5%	1.5
COc1ccccc1N1CCN(C(=O)COc2ccccc2C#N)CC1	1.2%	-0.3
CN1CCN(C(=O)C(=O)Nc2c3c(nn2-c2ccc(Cl)cc2)CSC3)CC1	0.2%	-0.1
COc1cccc(Cn2c(SCc3ccc(C(=O)N4CCC(C)CC4)cc3)nc3ccncc32)c1	-0.8%	2.5
COc1ccc(C2NC(=O)NC(C)=C2C(=O)Nc2ccccc2)cc1OC (stereo not drawn)	0.9%	1.7
CCC(CC)C(=O)Nc1cc(-c2ccccc2F)nn1-c1ccccc1	-0.3%	0.0
COc1ccc(Cl)cc1S(=O)(=O)NCc1ccc2c(c1)CCN2C(=O)c1cccc(C)c1	1.5%	3.3
c1ccc2c(N=NN3CCCCC3)ccnc2c1	0.6%	0.9
O=S(=O)(Nc1cccc(Cl)c1)c1ccc2[nH]c3c(c2c1)CCCCCC3	1.4%	2.5
Cc1cnc(/C=C/c2ccc(N(C)C)cc2)cn1	3.2%	-0.1
Cc1cccc(-c2noc(-c3ccc(N4CCCC4)c([N+](=O)[O-])c3)n2)c1	-0.3%	-0.6
O=C(COC(=O)c1ccc2ncsc2c1)NC(=O)C1CCCCC1	0.5%	-0.4
COc1ccc(NC(=O)C2CCCN(S(=O)(=O)c3ccc(Br)s3)C2)cc1 (stereo not drawn)	2.4%	6.1
CN(Cc1ccccc1)C(=O)c1cccc(NC(=O)c2nsc3ccccc23)c1	0.5%	2.6
Cc1ccc(Cn2c(=O)n(CCCCC(=O)NCc3ccc4c(c3)OCO4)c(=O)c3ccccc32)cc1	2.4%	0.9
COc1cccc(CNC(=O)c2nn(-c3ccccc3Cl)nc2CO)c1	-0.2%	4.1
CCc1ccc(NC(=O)C2(c3cccs3)CCOCC2)cc1	2.9%	-0.7
O=C(Cc1ccc2ccccc2c1)NO	1.7%	0.0
O=C(c1noc2c1CCCCC2)N1CCN(c2cccc(Cl)c2)CC1	4.9%	1.1
COc1ccc(NC(=O)c2oc3c(c2C)-c2nn(Cc4c(F)cccc4Cl)cc2CC3)c(OC)c1	5.2%	2.4
CCCc1nnc(NC(=O)Cc2coc3c(C)c(C)ccc23)s1	0.9%	-1.2
Cc1ccc(-n2c(C)cc(C(=O)C(=O)Nc3ccccc3)c2C)c(C)c1	-1.4%	0.2

These rows are one share of the data (hit frequency here may not be typical).
